miR-21 FLuc: raises the signal of a miR-21 reporter; HeLa miR-21 FLuc reporter, luciferase, 48 h; Potency, µM (titrated, usually from 38.3 µM), inactives show at the top dose reporter change, positive = more light; 340,000 tested, under 10 active; AID 2288; active = well fitted rising curve with a large enough effect; inconclusive = small, poorly fitted or top-dose-only effect; inactive = no such curve, though single readings can be large or run the other way;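 further: % of control where 0% means no effect; miR-21 action dims this reporter so a rising signal means less miR-21 action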
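Compounds were titrated across several concentrations (up to approximately 40 uM) and incubated 48 hours with HeLa miR-21-FLuc reporter cells (miR-21 target sequence downstream of FLuc, endogenous miR-21). Readout was firefly luciferase luminescence after lytic detection reagent.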
Rango dissoc inh: inhibition of RanGTP-driven Rango-importin beta dissociation; O95149+P62826; Biochemical FRET Rango-importin beta, RanGTP-induced dissociation; Potency, µM (highest dose often 46.1 µM), for inactives: top-dose activity change, negative = inhibition; actives 0.071% (n = 340,000); active means falling FRET ratio curve, often poorly fitted, with flat reads before Ran was added; inconclusive means other falling curves, or compound fluorescence or quenching; inactive means flat or rising ratio curve;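 further: potency means the concentration at half of the fitted maximal effect; % of control where 0% means no effect; nearly all actives have a fitted effect of over 45% in size; -100% = wells without RanGTP and RCC1; the record marks most hits as doubtful in a second field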
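FRET read at 45 min, room temperature: inhibitors block the CFP/YFP signal rise when RanGTP (0.6 uM Ran, 2 mM GTP, 0.2 uM RCC1) frees Rango (0.1 uM) from importin beta (0.25 uM). Pre-read after 5 min compound exposure flags interference.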
GLA inh pH 4.5: alpha-galactosidase A (human) inhibition, pH 4.5. purified enzyme, 4-MU-alpha-Gal fluorescence, pH 4.5. activity change, negative = inhibition, % at 105 µM. 230,000 tested, under 10 active. AID 1467; inconclusive = small, poorly fitted or top-dose-only inhibition, or a rising curve; inactive = flat fitted curve, though single readings scatter; no compound was filed as active;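 further: 0% = full activity with enzyme and -100% = basal without enzyme; dose as in the result columns while the protocol names 77 µM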
Target sequence (P06280 whole entry, looked up): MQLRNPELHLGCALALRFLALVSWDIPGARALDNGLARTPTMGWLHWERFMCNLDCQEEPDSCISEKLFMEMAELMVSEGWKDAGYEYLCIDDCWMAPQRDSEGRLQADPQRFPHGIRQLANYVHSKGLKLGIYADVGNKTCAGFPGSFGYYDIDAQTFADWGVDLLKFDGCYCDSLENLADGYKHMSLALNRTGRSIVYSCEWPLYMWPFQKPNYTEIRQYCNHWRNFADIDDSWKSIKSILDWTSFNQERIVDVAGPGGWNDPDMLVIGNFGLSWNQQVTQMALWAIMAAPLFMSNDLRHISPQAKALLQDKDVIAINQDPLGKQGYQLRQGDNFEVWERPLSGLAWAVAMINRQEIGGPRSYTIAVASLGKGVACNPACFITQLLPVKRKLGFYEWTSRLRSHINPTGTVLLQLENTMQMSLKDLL
Rango complex inh: prevents formation of the Rango-importin beta complex; Q14974; Rango CFP/YFP FRET sensor + importin beta, 45 min; Potency, µM (series often up to 92.2 µM), without a hit: at the top dose inhibition of complex formation; actives 0.031% (n = 340,000); AID 540263; active = rising FRET ratio curve, often small or poorly fitted; inconclusive = mostly compound fluorescence or quenching in the first reads; inactive = flat curves in all reads;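 further: potency means the concentration at half of the fitted maximal effect; 0% = DMSO wells and 100% = buffer wells lacking importin beta; nearly all actives have a fitted effect of over 15% in size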
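FRET biosensor Rango (snurportin 1 IBB between N-terminal EYFP and C-terminal Cerulean), 50 nM in PBS/1 mM DTT/0.02% Tween-20/0.1% BSA, preincubated 5 min RT with compound; 0.125 microM importin beta added, 45 min RT, CFP/YFP FRET ratio read.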
An asterisk follows results filed as active; ? = inconclusive; . = no result given; & = joins results of further samples; [ ] = another dose, or the depositor's remark. Only part of the results is shown; rates above refer to the full screens.

mol,GLA inh pH 4.5,miR-21 FLuc,Rango dissoc inh,Rango complex inh
S=c1nc(-c2ccccc2)c(-c2ccccc2)n[nH]1,-5,-2%,-10%,-0.5%
O=C(NC(=S)N1CCCc2ccccc21)c1ccc(Br)cc1,0,-24%,-20%,?
COc1cccc(NC(=O)C(=O)NCCc2ccc(F)cc2)c1,8,-64%,-1%,-0.4%
CCn1c(SCc2ccc(Cl)c(Cl)c2)nnc1C(C)NC(=O)c1ccc(OC)cc1 (stereo not given),-21,-9%,-2%,-3.7%
CC(=O)c1ccc(NC(=O)Nc2ccc(Br)cc2C)cc1,7,-3%,8%,0.9%
COc1ccc(C(=O)N2CCN(c3ccc(NC(=O)c4cccnc4)cc3)CC2)cc1,.,7%,-6%,-0.9%
CCOC(=O)[C@H]1[C@H]2COc3ccc(C)cc3[C@@H]2N2C(=O)c3cc(F)ccc3NC(=O)[C@@]12C,.,.,-1%,-0.4%
N#Cc1ccccc1Sc1ccccc1C(=O)OCc1nnc(-c2ccccc2)o1,-5,-9%,7%,-2.4%
O=C(NCCc1ccccc1)c1ccc2nc3cc(Cl)ccc3c(=O)n2c1,.,-2%,-23%,?
CCOC(=O)c1cnc(-n2nc(C)cc2C)nc1N1CCOCC1,0,-3%,28%,1.9%
CCOC(=O)N1CCN(c2cc(N(C)CCO)c([N+](=O)[O-])c3nonc23)CC1,?,3%,-5%,-4.8%
Cc1cccc2sc(NC(=O)CCn3cccc3)nc12,-12,-11%,-3%,0.8%
CCOc1ccc(NC(=O)NCCCSC2CCCCC2)cc1,3,-5%,8%,-2.3%
COc1ccc(-c2[nH]ncc2CN2CCN(c3ccccn3)CC2)c(OC)c1,-2,6%,-5%,0.1%
Cc1ccccc1CSc1nsc(N)n1,-13,-23%,-8%,-2.2%
CC1(C)NC(=O)N(CC(O)COc2ccc(-c3ccccc3)cc2)C1=O (stereo not given),6,-6%,0%,1.0%
CC(C)n1cnc2c(oc3ccccc32)c1=O,.,-40%,-1%,-0.1%
COC(=O)c1ccc(N2CCN(c3ccccc3)CC2)c(N)c1,.,-27%,-7%,1.8%
COc1ccc2occ(C(=O)c3coc4ccc(O)c(CN(C)C)c34)c2c1,-3,5%,0%,1.9%
CN(C)CCNC(=O)C1(O)c2cc(Br)ccc2NC(=O)N1c1ccc(Cl)cc1 (stereo not given),.,-3%,-20%,-2.6%
COC(=O)[C@H](CC(C)C)NC(=O)N1CCC(C)CC1,-5,2%,-8%,-3.4%
O=C(COC(=O)c1ncc(Cl)c(Cl)c1Cl)NC(=O)c1ccccc1,.,.,0%,?
O=C(Nc1cccnc1Cl)c1ccc(S(=O)(=O)N2CCCCCC2)cc1,3,1%,8%,2.3%
COc1cccc(C2(O)C(=O)Nc3ccccc32)c1 (stereo not given),.,1%,-4%,-1.7%
COc1ccc(NC(=O)CN2C(=O)NC3(CCCC3)C2=O)cc1OC,.,0%,-16%,2.3%
NC(=O)c1ccc(=O)n(Cc2ccc(Cl)cc2Cl)c1,.,-8%,-2%,-2.0%
CC(C)c1c(C(=O)N/N=C/c2ccncc2)nnn1-c1nonc1N,.,-1%,9%,-2.4%
Cc1ccc(NC(=O)c2cc(NC(=O)c3ccco3)ccc2N2CCOCC2)cc1Cl,-6,-4%,7%,8.8%
C/C=C/C(=O)Nc1cccc(C2=NOC3(C2)C[C@@H](C(N)=O)N(C(=O)c2cc([N+](=O)[O-])cc([N+](=O)[O-])c2C)C3)c1 (stereo not given in full),0,9%,9%,2.8%
O=S(=O)(c1cccc(COc2c(Cl)cccc2Cl)c1)N1CCOCC1,.,.,-6%,-2.3%
Cc1c(CCC(=O)NCCCCCC(=O)O)c(=O)oc2cc3occ(-c4ccccc4)c3cc12,.,-1%,7%,-0.3%
O=C1C(=O)c2ccccc2C(O)=C1c1cccc([N+](=O)[O-])c1,-1,-3%,7%,0.8%
CCOc1ncccc1C(=O)OCC(=O)c1ccccc1,-5,-5%,11%,8.3%
CC(C)[C@H](NC(=O)c1ccccc1Cl)C(=O)OCC(=O)NC(=O)NCc1ccco1,.,.,-3%,-1.0%
O=C(Nc1ccc(Oc2ccc3c(c2)C(=O)N(c2ccc(O)cc2)C3=O)cc1)c1cccs1,0,-7%,2%,0.5%
CCCCN(c1ccccc1)c1ncnc(N)c1[N+](=O)[O-],-3,20%,1%,?
Cc1ccc2nc(=O)c(NNc3ccccc3)cnc2c1,-18,-42%,-20%,?
CN(C)CCN(C(=O)C1CCN(S(=O)(=O)c2cccs2)CC1)c1nc2ccc(F)cc2s1,.,.,20%,-0.8%
OC[C@H]1O[C@@H](Oc2ccc(O)cc2)[C@H](O)[C@@H](O)[C@@H]1O,.,.,-1%,3.1%
CN(c1ccccc1)S(=O)(=O)c1cccc(C(=O)NC2CCCC2)c1,.,.,-2%,2.7%
CC(=O)Nc1ccc(SCC(=O)N(C)CC(=O)Nc2ccccc2Cl)cc1,.,.,1%,-4.0%
COC(=O)c1sc(NC(=O)C(C)C)c(C(=O)OC)c1C,5,-11%,21%,0.2%
CCN(C(=O)Cn1c(=O)n(-c2cc(OC)c(OC)c(OC)c2)c(=O)c2ccccc21)c1cccc(C)c1,-3,2%,15%,-6.5%
O=C(c1ccco1)N1CCN(C(=O)c2cnn(-c3cccc(F)c3)c2C2CCNCC2)CC1,.,-3%&-4%,-6%,-0.8%
COc1ccc(S(=O)(=O)NC2(C(F)(F)F)N=C(c3ccccc3)NC2=O)cc1 (stereo not given),3,-2%,1%,0.2%
CC(C)[C@H](NC(=O)c1ccc(C(C)(C)C)cc1)C(=O)N1CCN(Cc2ccc3c(c2)OCO3)CC1,.,.,2%,1.0%
COC(=O)c1cc2c(ccn2-c2ccc(F)cc2)n1CC(=O)C(C)(C)C,-3,1%,-11%,-2.5%
Cc1cc(=O)oc2c(C)c(OCC(=O)N3CC[C@@]4(O)CCCC[C@H]4C3)ccc12,.,-4%,-8%,-0.6%
CC(C)(C)C(=O)N(Cc1ccc(Cl)cc1)c1cnccn1,.,9%,-5%,1.9%
Cn1nc(C(F)(F)F)c(-c2ccc(Br)cc2)c1NC(=O)Nc1ccc(F)cc1F,-7,?,-2%,-1.1%
O=C(Nc1ccc(Br)cc1)c1cccc(-n2cnnn2)c1,.,2%,10%,1.5%
CC(C(=O)NC1CCCCC1)N1CCN(S(=O)(=O)c2cccs2)CC1 (stereo not given),.,.,8%,3.5%
O=C(COc1ccc2c(c1)CCC2)N1CCN(c2ccccc2F)CC1,-7,-17%,12%,-3.6%
CCc1ccc(CNC(=O)c2cc3c(C)nc4ccccc4c3o2)cc1,-6,21%,-9%,2.2%
Cc1onc(-c2c(Cl)cccc2Cl)c1COC(=O)c1ccc(Cl)cc1,-2,1%,16%,-3.1%
COc1cc(NC(=O)C2CC2C)c(C(=O)O)cc1OC (stereo not given),3,0%,0%,0.9%

Carrying on:
mol,GLA inh pH 4.5,miR-21 FLuc,Rango dissoc inh,Rango complex inh
Cc1c(NC(=S)NC(=O)c2cccc(Cl)c2)c(=O)n(-c2ccccc2)n1C,.,2%,-17%,-2.2%
N#CCCN(C(=O)Cn1nc(C(=O)O)c2ccccc2c1=O)c1ccccc1,.,4%,16%,-2.2%
C=CCC(NC(=O)Cc1ccccc1)C(=O)NCCC (stereo not given),.,.,8%,?
O=C(c1ccc(Cl)cc1[N+](=O)[O-])N1CCc2ccccc2C1,-1,-3%,-1%,0.5%
O=C(Oc1cccc(C(=O)N2CCOCC2)c1)c1ccc(Br)cc1,2,-2%,-8%,0.8%
CCN1CCN(C(C)C(=O)NC2CCCCC2)CC1 (stereo not given),11,-1%,-12%,-4.0%
CC(=O)c1c(C)[nH]c(C(=O)N2CCN(c3ncccn3)CC2)c1C,2,6%,15%,0.5%
Cc1ccc(-c2nn(-c3ccc(F)cc3)cc2C(=O)NC2CCC(O)CC2)cc1 (stereo not given),.,.,10%,-0.7%

Reformatted field by field: part of the list above
> O=C(c1ccco1)N1CCN(C(=O)c2cnn(-c3cccc(F)c3)c2C2CCNCC2)CC1
- GLA inh pH 4.5: .
- miR-21 FLuc: -3%&-4%
- Rango dissoc inh: -6%
- Rango complex inh: -0.8%
> COc1ccc(S(=O)(=O)NC2(C(F)(F)F)N=C(c3ccccc3)NC2=O)cc1 (stereo not given)
- GLA inh pH 4.5: 3
- miR-21 FLuc: -2%
- Rango dissoc inh: 1%
- Rango complex inh: 0.2%
> CC(C)[C@H](NC(=O)c1ccc(C(C)(C)C)cc1)C(=O)N1CCN(Cc2ccc3c(c2)OCO3)CC1
- GLA inh pH 4.5: .
- miR-21 FLuc: .
- Rango dissoc inh: 2%
- Rango complex inh: 1.0%

(continued)
mol,GLA inh pH 4.5,miR-21 FLuc,Rango dissoc inh,Rango complex inh
CCCN(CCC)c1nc2ccccc2n2c(C)nnc12,2,-8%,-5%,0.3%
COCCCN1C(=O)C(=O)/C(=C(/O)c2ccc3c(c2)CC(C)O3)C1c1cccnc1 (stereo not given),-8,-2%,-4%,-2.3%
O=C(NC(=S)Nc1ccccc1N1CCOCC1)c1ccc([N+](=O)[O-])cc1,1,-4%,15%,-0.1%
COCCNc1nc2c(c(=O)n(Cc3ccc(OC)cc3)c(=O)n2C)n1C,-4,3%,-9%,-2.7%
O=C(CC1CCCC1)NCCS(=O)(=O)N1CCN(c2ccccc2F)CC1,.,.,-13%,0.2%
COc1ccccc1OCCNC(=O)c1ccccc1C,-1,-22%,22%,-2.8%
COCCNCC#CCOc1ccc(OC)cc1,-2,-2%,10%,2.2%
O=C(CCc1nc(-c2ccccc2Cl)no1)NC1CCCC1,.,-3%,5%,5.1%
COc1ccc(CC(=O)Nc2ccc(-c3noc(COc4ccccc4C)n3)cc2)cc1,7,-11%,16%,-3.6%
Cc1ccccc1NC(=S)C1=C(O)c2sccc2N(C)S1(=O)=O,-4,-10%,?,?
CC(C)C(C)(C#N)NC(=O)CSc1nnc(-c2ccncc2)n1Cc1ccccc1 (stereo not given),3,-7%,?,?
CC(=O)N1CCc2cc(Br)cc(S(=O)(=O)N3CCC(C(=O)O)CC3)c21,.,2%,18%,3.8%
CCCN(CCC)Cc1c(C(=O)N/N=C/c2ccco2)nnn1-c1nonc1N,.,-5%,-15%,2.8%
C/C(=N/NC(=O)CCc1ccccc1)c1ccco1,0,-5%,11%,3.9%
CC1CCCCN1C(=S)NCCc1ccccc1 (stereo not given),0,-42%,0%,-4.7%
O=C(c1ccccc1)N1CCN(Cc2ccccc2C(F)(F)F)CC1,7[21.1 µM],3%,5%,3.1%
CC(=O)N(C)c1ccc(N2CCOCC2)c2c1C(=O)c1ccccc1C2=O,.,.,18%,0.0%
CC(C)[C@H](NC(=O)Nc1ccc(Oc2ccccc2)cc1)C(=O)O,2,-9%,-11%,-4.9%
O=C(O)CC12CC3CC(C1)CC(n1ncc(NCC4CCCO4)c(Cl)c1=O)(C3)C2 (stereo not given),-2,3%,-5%,-3.7%
CS(=O)(=O)Nc1cccc(C2=NN(C(=O)CCC(=O)O)C(c3cccs3)C2)c1 (stereo not given),.,-4%,-4%,-0.3%
COc1ccc(OC)c(NC(=O)CCCN2C(=O)C3C4C=CC(C4)C3C2=O)c1 (stereo not given),-4,0%,10%,2.6%
O=C(CN1CCN(c2ccccc2)CC1)Nc1ccc(OCc2ccccc2)cc1,-10,0%,-1%,-2.9%
O=C(Nc1nnc(CCc2ccccc2)s1)c1ccccc1F,.,-26%,1%,-1.1%
O=C(NCc1cccc2[nH]ccc12)C1CCC(=O)N(CCc2ccc(Cl)cc2)C1 (stereo not given),.,3%,-2%,0.7%
O=C(CN(Cc1ccc(F)cc1)C(=O)CCC(=O)Nc1nccs1)NCC1CCCO1 (stereo not given),.,-1%,22%,3.6%
COCc1cc(=O)n2[nH]cc(-c3ccccc3)c2n1,.,-15%,2%,0.3%
CNCCOc1ccccc1C(C)(C)C,-17,8%,-11%,1.3%
